Screens: PubChem, Southern Research Institute
Mtb growth = Mycobacterium tuberculosis H37Rv growth inhibition, cell based, confirmatory dose response (AID 1949). one-dose inhibition, % at 10 µg/mL; IC50 in µg/mL for titrated hits. most inactive calls were filed without a number and no value below 0 was filed. 100,000 compounds, 1.6% hits;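 active = confirmed in a dose series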;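 note: bacteria grown 7 days with compound before Alamar blue readout; 0% = untreated bacteria and 100% = reference antibiotic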
* marks the source's active call; other numbers are inactive results; i = inactive. An excerpt. The share of hits here may be higher or lower than overall.

SMILES | Mtb growth
COC(=O)C1=C(C)NC2=C(C(=O)c3ccccc32)C1c1cccs1 (configuration not stated) | 5%
Cc1ccc(-c2nc(SCC(=O)N3c4ccccc4Sc4ccccc43)n[nH]2)cc1 | 1%
COC(=O)CNC(=O)C(C)Oc1ccc(Cl)cc1Cl (configuration not stated) | i
Cc1ccc(C(C2=C(O)c3ccccc3C(=O)C2=O)c2ccccc2)cc1 (configuration not stated) | i

Of the compounds above, 2 have sulfur:
SMILES | Mtb growth
COC(=O)C1=C(C)NC2=C(C(=O)c3ccccc32)C1c1cccs1 (configuration not stated) | 5%
Cc1ccc(-c2nc(SCC(=O)N3c4ccccc4Sc4ccccc43)n[nH]2)cc1 | 1%
